Screening data (PubChem BioAssay)
VACV Venus inh = vaccinia inhibition (Venus reporter); Vaccinia virus Venus reporter expression, fluorescence; 330,000 tested, 0.46% active; Potency, µM (highest dose often 36.5 µM), for inactives: at the top dose activity change, negative = inhibition, actives largely listed as inhibitors; active means well fitted inhibition curve with a large enough effect; inconclusive means small, poorly fitted or top-dose-only effect; inactive means no such curve, though single readings can be large or run the other way; tested in A549 cells; further: nearly all actives have a fitted effect of over 30% in size; inactives centre near -10
VACV mCherry inh = vaccinia inhibition (mCherry reporter); Vaccinia virus mCherry reporter infection, fluorescence; about a quarter of the inactives have no number; Potency, µM (series often up to 36.5 µM), without a hit: at the highest dose activity change, negative = inhibition, usual class: inhibitors; 310,000 tested, 0.63% active; AID 720579; active = well fitted inhibition curve with a large enough effect; inconclusive = small, poorly fitted or top-dose-only effect; inactive = no such curve, though single readings can be large or run the other way; tested in A549 cells; further: nearly all actives have a fitted effect of over 35% in size; inactives centre near -10
An asterisk follows results filed as active; i = inactive; ? = inconclusive; / = no result given; [ ] = dose if it differs, or a comment. On the % scale 0 is the no-effect control and ±100 the full control effect; potency means the concentration at half of the fitted maximal effect.

smiles	VACV Venus inh	VACV mCherry inh
Cc1ccc(CN(C(=O)c2csnn2)C(C(=O)NC2CCCC2)c2cccnc2)cc1 (stereo unspecified)	-4%	14%
CCCN(CCC)CC(O)Cn1cc(/C=C/C(=O)c2ccc(Br)cc2)c2ccccc21 (stereo unspecified)	-15%	-25%
O=C(NCCc1ccccc1)C1CCN(S(=O)(=O)N2CCCCCC2)CC1	-8%	-13%
N#CCCn1c(C(C#N)(CCC#N)CCC#N)nc2ccccc21	-15%	-9%
COc1cc(OC)cc(C(=O)NCC(=O)N2CCC(C)CC2)c1	-9%	-13%
OC(c1ccccc1)c1nccc2ccccc12 (stereo unspecified)	-2%	2%
Cc1cccc(Nc2c3c(nc4nncn24)CCC3)c1	-13%	-17%
CCOc1cc(C(C(=O)NCC2CCCO2)N(C(=O)Cn2nnc3ccccc32)c2ccc(C(C)=O)cc2)ccc1O (stereo unspecified)	-3%	-7%
Cc1ccc(NC(=O)c2cn3c4c(ccc(Cl)c4c2=O)OC(C)C3)c(C)c1 (stereo unspecified)	-2%	-8%
Cc1ccc(NC2=C(N3CCCCC3)C(=O)c3ccccc3C2=O)cc1	-14%	i
C[n+]1ccccc1/C=C/c1ccc(C#N)cc1	-2%	0%
Cc1ccc(-c2[nH]c(-c3ccc(Cl)cc3)nc2SCC(=O)NCC2CCCO2)cc1 (stereo unspecified)	-14%	7%
COc1ccc(OC)c(S(=O)(=O)NCCc2ccccc2)c1	-10%	-8%
O=C(NCCSCc1cccc(Cl)c1)C1CCN(S(=O)(=O)Cc2ccccc2)CC1	0%	3%
CCn1c(SC(C)C(=O)OC)nnc1-c1c[nH]c2ccccc12 (stereo unspecified)	5%	28%
COC(=O)c1c(NC(=O)Cc2cccs2)sc2c1CCC(C)C2 (stereo unspecified)	1%	-14%
O=C(O)COc1cc(Cl)c(Cl)cc1Cl	0%	i
CCOc1ccc(NC(=O)c2ccc(NC(=O)c3ccc(NC(N)=O)cc3)cc2)cc1	-4%	-7%
Cc1ccc(C)c(S(=O)(=O)Nc2ccc(C(=O)N3CCOCC3)cc2)c1	-15%	i
Cc1ccc(NS(=O)(=O)c2ccc(C)c(NC(=O)COc3ccc4ccccc4c3)c2)c(C)c1	-29%	?
Cc1sc2ncnc(NCC(O)c3ccc([N+](=O)[O-])cc3)c2c1C (stereo unspecified)	-12%	-4%
CN(C)c1cccc(C(=O)NCCCSc2ccccc2)c1	-16%	i
CCCn1c(CNc2ccc(Br)cc2)nc2ccccc21	?	11µM*
CCn1cc(C(=O)NC(C)C)c(=O)c2cc(F)c(N3CCN(C(=O)c4ccco4)CC3)cc21	-22%	-28%
COc1cccc(CNC(=O)CCC2CCCN(C(=O)Cc3ccccc3F)C2)c1 (stereo unspecified)	-5%	i
Cc1cc(C(=O)Nc2ccc(Cl)cc2)n(-c2ccccc2)n1	-8%	-14%
Cc1ccc(C(c2c(O)nc3n(c2=O)CCS3)c2c(O)nc3n(c2=O)CCS3)cc1	-7%	i
CC(C)CC(C(=O)Nc1oc(-c2ccco2)c(-c2ccco2)c1C#N)N1C(=O)c2ccccc2C1=O (stereo unspecified)	6%	-13%
O=C(O)c1ccc(N2C(=O)CC(SC(=NCc3ccc4c(c3)OCO4)Nc3ccc(F)cc3)C2=O)cc1 (stereo unspecified)	-6%	-5%
Cc1cccc(C)c1NC(=O)Cn1cc(S(=O)(=O)Cc2ccc(F)cc2)c2ccccc21	-14%	i
CCn1c(SCC(=O)Nc2ccccc2C(=O)OC)nnc1-c1ccoc1C	-2%	-9%
Cc1ccc2[nH]cc(/C=C/c3cc[n+](C)cc3)c2c1	51%[activator]	?
COc1ccc(-c2noc(CN(C(=O)c3ccccc3Cl)C(C)C)n2)cc1	-7%	-13%
Cc1ccccc1N1CCN(C2CCCN(C(=O)CCN3CCCO3)C2)CC1 (stereo unspecified)	-8%	i
Cc1c(NC(=O)c2ccc(CN3CCc4ccccc4C3)cc2)c(=O)n(-c2ccccc2)n1C	?	-6%
CC(=O)C1=C(C)NC(=O)NC1/C=C/c1ccccc1 (stereo unspecified)	-25%	i
O=C1NC2CCCCC2C(=O)N1OS(=O)(=O)c1ccccc1 (stereo unspecified)	-12%	-6%
CCOC(=O)C1Nc2ccc(C(F)(F)F)cc2C2C=CCC12 (stereo unspecified)	-7%	i
O=C(Nc1ccc(Cl)cc1)N1CCCC1	0%	i
N/C(=N\OC(=O)c1cccs1)c1cccnc1	-4%	-14%
Cc1oc2cc(O)ccc2c(=O)c1Oc1ccccc1Br	-8%	-26%
CCOC(=O)c1noc(C)c1C(=O)Nc1nccs1	-15%	-2%
CC(=O)Oc1ccccc1-c1nc(C)nc(N(C)C(C)=O)n1	-19%	-15%
O=C(Nc1ccc2c(c1)OCO2)C1Cc2c(-c3ccccc3Oc3ccccc3)ccnc2O1 (stereo unspecified)	-20%	12%
COc1ccccc1N1CCN(C(=O)c2cccc(NC3=NC4CS(=O)(=O)CC4S3)c2)CC1 (stereo unspecified)	-7%	-11%
CC(C)Oc1ccc(C(=O)N(Cc2ccc(N(C)C)cc2)Cc2ccco2)cc1	-4%	-2%
CCCCN(C(C)=O)c1c(CC)nc2ccc(C(=O)NCCc3ccccn3)cn12	-13%	17%
C[C@H]1C(=O)N(C)CCN1Cc1cn(C)nc1-c1ccc(Oc2ccccc2)cc1	-12%	-1%

15 entries from above, set out differently.
Second line of a record – VACV Venus inh, VACV mCherry inh
- Cc1ccccc1N1CCN(C2CCCN(C(=O)CCN3CCCO3)C2)CC1 (stereo unspecified)
→ -8%, i
- Cc1c(NC(=O)c2ccc(CN3CCc4ccccc4C3)cc2)c(=O)n(-c2ccccc2)n1C
→ ?, -6%
- CC(=O)C1=C(C)NC(=O)NC1/C=C/c1ccccc1 (stereo unspecified)
→ -25%, i
- O=C1NC2CCCCC2C(=O)N1OS(=O)(=O)c1ccccc1 (stereo unspecified)
→ -12%, -6%
- CCOC(=O)C1Nc2ccc(C(F)(F)F)cc2C2C=CCC12 (stereo unspecified)
→ -7%, i
- O=C(Nc1ccc(Cl)cc1)N1CCCC1
→ 0%, i
- N/C(=N\OC(=O)c1cccs1)c1cccnc1
→ -4%, -14%
- Cc1oc2cc(O)ccc2c(=O)c1Oc1ccccc1Br
→ -8%, -26%
- CCOC(=O)c1noc(C)c1C(=O)Nc1nccs1
→ -15%, -2%
- CC(=O)Oc1ccccc1-c1nc(C)nc(N(C)C(C)=O)n1
→ -19%, -15%
- O=C(Nc1ccc2c(c1)OCO2)C1Cc2c(-c3ccccc3Oc3ccccc3)ccnc2O1 (stereo unspecified)
→ -20%, 12%
- COc1ccccc1N1CCN(C(=O)c2cccc(NC3=NC4CS(=O)(=O)CC4S3)c2)CC1 (stereo unspecified)
→ -7%, -11%
- CC(C)Oc1ccc(C(=O)N(Cc2ccc(N(C)C)cc2)Cc2ccco2)cc1
→ -4%, -2%
- CCCCN(C(C)=O)c1c(CC)nc2ccc(C(=O)NCCc3ccccn3)cn12
→ -13%, 17%
- C[C@H]1C(=O)N(C)CCN1Cc1cn(C)nc1-c1ccc(Oc2ccccc2)cc1
→ -12%, -1%

Other records.
smiles	VACV Venus inh	VACV mCherry inh
COc1ccc(Cl)cc1NC(=O)CSc1nnc(C)n2c1cc1sccc12	-29%	?
C/C(=N\NC(=O)c1cc(-c2ccncc2)nc2ccccc12)c1ccc(OC(F)F)cc1	-15%	i
CCOC(=O)C1=NOC2(C1)C(=O)Nc1ccc(OC)cc12 (stereo unspecified)	12%	20%
O=C(COC(=O)CNS(=O)(=O)c1cccc(Br)c1)Nc1ccccc1Sc1ccccc1	1%	-14%
Cc1ccc(S(=O)(=O)NCCc2nnc3ccc(SCc4ccc(F)cc4)nn23)cc1	-10%	-17%
COc1cccc(-n2cnc3c(sc4nc(N5CCOCC5)c5c(c43)CCCC5)c2=O)c1	12%	-25%
CCc1ccc(C(=O)c2cn(CC(=O)Nc3ccc(OC)cc3)c3cc4c(cc3c2=O)OCCO4)cc1	-23%	-25%
CN(C)c1ccc2c(c1)N=C(c1ccco1)OP2(=S)N1CCOCC1 (stereo unspecified)	-3%	i
COc1ccc(CCNC(=S)NC(=O)/C=C/c2ccc(C)cc2)cc1OC	-22%	-3%
O=C(Nc1ccccc1)/C(=C\c1ccc2c(c1)OCO2)NC(=O)c1ccco1	0%	-10%
CCOc1ccc(N2CC(NC(=O)Cc3cccs3)CC2=O)cc1 (stereo unspecified)	-10%	-15%
COc1ccc(/C=N/NC(=O)c2cc(C)oc2C)cc1OC	-6%	-18%
COc1ccc(-c2nc(SCC(=O)NC3CCCC3)c(-c3ccc(F)cc3)[nH]2)cc1	-10%	-10%
Cc1nc(N)sc1C(=O)Nc1ccccc1	-3%	/
O=C(NCCC1CCCCN1S(=O)(=O)c1ccccc1)C(=O)NCc1ccccc1F (stereo unspecified)	-14%	-23%
Cn1c(=O)n(C)c2cc(/C=N/NC(=S)NCc3ccccc3)ccc21	-15%	-20%
CCNc1nc(N2CCCN(C)CC2)nc2cc(OC)c(OC)cc12	-28%	?
CC(C)(C)n1nnnc1C(c1ccccn1)N1CCN(C(c2ccccc2)c2ccccc2)CC1 (stereo unspecified)	-14%	-23%
Cc1ccc(S(=O)(=O)N2[C@H](CC(=O)c3ccccc3)OC[C@@H]2C)cc1	-6%	-24%
O=C1NC(=O)N(Cc2ccc(F)cc2)C(=O)/C1=C\c1ccoc1	9%[7.34 µM]	i[7.34 µM]
CC(=O)NC(Cc1ccc(F)cc1)C(=O)NC1CCN(C(=O)Nc2ccc(F)cc2)CC1 (stereo unspecified)	1%	6%
CCC(=O)c1ccc(OCC(=O)OCC(=O)NCCC2=CCCCC2)cc1	-13%	i
Cc1ccc(S(=O)(=O)CCC(=O)OCC(=O)NCCc2ccc(F)cc2)cc1	-13%	i
CC1=C(C(=O)OCC2CCCO2)C(c2ccncc2)C2=C(CC(C)(C)CC2=O)N1 (stereo unspecified)	-12%	i
O=C(O)c1ccc(-n2nnc3ccccc32)c([N+](=O)[O-])c1	-2%	i
OCCNc1nc(NCCC2=CCCCC2)nc(N2CCOCC2)n1	?	/
O=S(=O)(c1ccc(Cl)cc1)N1CCN(c2nc(C(F)(F)F)nc3ccccc23)CC1	-4%	i
Nc1cc(=O)[nH]c(SCC(=O)NCCC2=CCCCC2)n1	-4%	-20%
N#CC(=Cc1cccs1)c1nc(-c2ccc(Cl)cc2)cs1	-13%	i
O=[N+]([O-])c1cc(S(=O)(=O)Nc2ccccc2)ccc1N1CCN(c2ccccc2)CC1	?	?
Cc1ccc(Oc2ccc(S(=O)(=O)NCC(C)(C)N3CCOCC3)cc2)cc1	-17%	-2%
O=C(CN1C(=O)CC(c2ccccc2)S(=O)(=O)c2ccccc21)N1CCCCC1 (stereo unspecified)	2%	-7%
CCOC(=O)Nc1ccc(C(N)=O)cc1	-1%	-9%
O=C(Nc1nccs1)c1ccc(S(=O)(=O)N2CCOCC2)cc1	-18%	-1%
COc1cccc(CNC(=O)c2cccc(Br)c2)c1	-5%	-21%
CCn1c(=S)[nH]c2cc(S(=O)(=O)N3CCOCC3)ccc21	-11%	-22%
CC(NC(=O)C(NC(=O)C(Cc1c[nH]c2ccccc12)NC(=O)OC(C)(C)C)C(C)C)C(N)=O (stereo unspecified)	7%	0%
CCN(CC)S(=O)(=O)c1ccc(NC(=O)CSc2nc3nc(C)cc(C)c3c(=O)[nH]2)cc1	-6%	-8%
COc1ccc(NC(=O)COc2ccccc2)cc1Cl	-15%	-22%
COc1cccc(/C(O)=C/c2nc3ccc(C(=O)NCCc4ccc(Cl)cc4)cc3[nH]c2=O)c1	-20%	-24%
CCOc1ccc(Oc2ccc(NC(=O)[C@@H](NC(N)=O)[C@@H](C)CC)cc2)cc1	-11%[7.34 µM]	i[7.34 µM]
COc1cccc(NC(=O)CCN2C(=O)c3ccc([N+](=O)[O-])cc3C2=O)c1	-16%	-2%
Cc1ccc(NC(=O)c2cnn(-c3ccc(C)c(C)c3)c2C2CCN(C(=O)OC(C)(C)C)CC2)c(C)c1	-18%	-16%
COCCSc1ccccc1C(=O)Nc1cc([N+](=O)[O-])ccc1OC	-12%	-6%
CC(=O)NCCNC(=O)c1cc(-c2cccc3ccccc23)nc2ccccc12	-3%	-13%
NC(c1csc(Nc2ccccn2)n1)C1CCCCC1 (stereo unspecified)	-4%	4%
O=C(COC(=O)c1cccc([N+](=O)[O-])c1)c1ccc(OCc2ccccc2)cc1	-7%	i
CC(C)Sc1ncc(Cl)c(C(=O)Nc2ccc(S(=O)(=O)N(C)c3ccccc3)cc2)n1	-3%	-6%
COc1ccc2c(c1)c(CCNNC(=O)C(C)(C)C)c(C)n2C(=O)c1ccc(Cl)cc1	-30%	-18%
COc1ccc(N2C(=O)C3CCCN3C2c2cc(OC)c(OC)c(OC)c2)cc1 (stereo unspecified)	-6%	-3%
CNC(=O)Cn1nc(-c2ccc(C)cc2)c2ccccc2c1=O	-5%	-15%
Cc1noc(C)c1CSCC(=O)Nc1cc(S(C)(=O)=O)ccc1Cl	-11%	i
O=C(Cc1cccs1)NCc1ccc(Cl)cc1	2%	i
